VDR inh: blocks the human vitamin D receptor; P11473; VDR-SRC2-3 peptide fluorescence polarization, 2 h; Potency, µM, without a hit: max response, negative = inhibition, usual class: inhibitors; 400,000 compounds, 0.93% hits; active = well fitted inhibition curve with a large enough effect; inconclusive = small, poorly fitted or top-dose-only effect, or another doubt; inactive = no such curve, though single readings can be large or run the other way; note: series mostly up to about 120 µM
Target sequence (P11473 whole entry, looked up): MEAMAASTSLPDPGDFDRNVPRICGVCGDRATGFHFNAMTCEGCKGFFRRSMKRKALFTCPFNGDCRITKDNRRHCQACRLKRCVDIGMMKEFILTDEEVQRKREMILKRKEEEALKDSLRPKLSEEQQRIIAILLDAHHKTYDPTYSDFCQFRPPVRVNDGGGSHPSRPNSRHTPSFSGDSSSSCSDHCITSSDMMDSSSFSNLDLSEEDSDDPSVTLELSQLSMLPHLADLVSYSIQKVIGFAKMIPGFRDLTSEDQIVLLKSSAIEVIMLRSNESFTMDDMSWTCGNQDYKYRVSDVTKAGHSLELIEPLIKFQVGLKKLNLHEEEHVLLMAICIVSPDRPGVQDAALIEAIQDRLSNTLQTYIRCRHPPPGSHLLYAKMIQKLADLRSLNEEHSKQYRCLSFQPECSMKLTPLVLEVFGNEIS
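Inhibition of the VDR/SRC2-3 peptide interaction is quantified by fluorescence polarization. Compounds (23 nl, pintool) incubate with the reagents for 2 hours at ambient room temperature.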
Active calls of the source: *; ? = inconclusive; & = joins results of further samples; [ ] = dose if it differs, or a comment. % is set by controls: 0 for no effect and ±100 for the full control effect; potency is the fitted concentration of half-maximal effect. A portion of the library; count on the stated rates, not on these rows.

SMILES | VDR inh
COc1cccc(-n2c(SCC(=O)c3ccc(Cl)cc3)nc3c([nH]c4ccccc43)c2=O)c1 | -6.1%
Cn1cccc1C(=O)NC(=O)COC(=O)c1ccc(O)cc1 | 5.7%
CCN(C(=O)CSc1nnc(-c2ccncc2)o1)c1ccccc1 | 12.3%
COC(=O)c1ccc(-c2ccc(CNCC(O)c3ccccc3)o2)cc1 (configuration not stated) | 12.9%
Cc1ccc(S(=O)(=O)N2CCOCC2)cc1NC(=O)CNCc1ccc(Cl)cc1Cl | -5.2%
CCN(CC(=O)Nc1ccccc1OC)C(=O)CC1CCCC1 | 2.6%
CCn1c(NC(=O)c2nn(C)cc2Br)nc2ccccc21 | -14.5%
CC(=O)N1CCN(C(=O)c2cc(-c3cccc4ccccc34)nc3ccccc23)CC1 | 8.9%
COc1ccc(C(=O)N/C(=C/c2ccc(Cl)cc2)C(=O)Nc2ccc(C(=O)O)cc2)cc1 | -15.9%
O=C(Cc1ccccc1)Nc1cc([N+](=O)[O-])ccc1N1CCOCC1 | -14.1%
CCOc1ccc(NC(=O)c2c(NC(=O)CN3CCCC3)sc3c2CCC3)cc1 | 2.3%
Cc1sc2c(c1C)c(=O)n(-c1ccc(Cl)cc1)c(=O)n2Cc1cc(=O)n2cc(Br)ccc2n1 | -11.4%
Cc1nnc(SCc2cc(=O)[nH]c(=S)[nH]2)s1 | 17.1%
CCn1c(SCC(=O)NC2CCCc3ccccc32)nnc1-c1cccs1 (configuration not stated) | -7.3%
CC(C)C[C@H](CO)N(Cc1ccccc1)S(=O)(=O)N(Cc1ccccc1)[C@@H](CO)CC(C)C | -7.5%
COc1cccc(C2=NN(C(=O)c3ccc(C)o3)C(O)(C(F)(F)F)C2)c1 (configuration not stated) | -4.0%
CCOC(=O)/C=C1\SCC(=O)N1CC(=O)NC(c1ccccc1)c1ccccc1 | 2.4%
CSc1ccc(CNC(=O)c2sc3ncnc(N(C)C4CCCCC4)c3c2C)cc1 | 8.0%
CN(C)CCCNC(=O)C(=O)NCC1OCCN1S(=O)(=O)c1cc(F)ccc1F (configuration not stated) | -12.0%
O=C(COC(=O)c1nc(Cl)ccc1Cl)NNC(=O)c1cccs1 | -3.3%
CN(C(=O)c1ccc(NC(=O)C2CC=CCC2C(=O)O)cc1)c1ccccc1 (configuration not stated) | -7.2%
CCOCCn1c(N2CCN(c3ccc(OC)cc3)CC2)nc2c1c(=O)n(C)c(=O)n2C | -5.5%
O=C(CC1(O)C(=O)Nc2cc(Cl)cc(Cl)c21)c1ccccc1O (configuration not stated) | ?
Cc1ccc2c(c1)C(O)(CC(=O)c1cccnc1)C(=O)N2 (configuration not stated) | -6.3%
O=C(O)CSc1cc(C(=O)c2ccccc2O)cn2c(=O)c3c(-c4ccccc4)csc3nc12 | -16.9%

Continuation:
SMILES | VDR inh
CCOc1ccc(N(CC(=O)Nc2ccc(CC)cc2)S(=O)(=O)c2c(C)[nH]c(=O)[nH]c2=O)cc1 | -1.2%
Cc1ccc2c(c1)CCCN2C(=O)c1ccco1 | 21.0%
CCOc1ccc(C2C(C(=O)Nc3ccc(F)cc3)=C(C)Nc3nc(CCCO)nn32)cc1 (configuration not stated) | -8.4%
Cc1c(NS(=O)(=O)c2cccc3nsnc23)c(=O)n(-c2ccccc2)n1C | ?
OCCN1CCN(c2nnc(-c3ccccc3)c3ccccc23)CC1 | 4.2%
O=C1c2ccccc2CN1CCNS(=O)(=O)c1ccc(Cl)cc1 | -11.0%
O=C(CSc1nnc2ccc3ccccc3n12)Nc1ccccc1Cl | 6.0%
Cc1ccccc1C(=O)Nc1nc2nc(-c3ccccc3)cc(=O)n2[nH]1 | 8.2%
CC(C)Cn1c(=O)c(C(=O)Nc2ccccc2S(N)(=O)=O)c(O)c2ccccc21 | 9.2%
C#CCOCCOCCOCCNc1nc(N2CCN(C(=O)[C@H](CO)n3cc([C@@H](N)C(C)C)nn3)CC2)nc(N2CCN(C(=O)[C@H](CO)n3cc([C@@H](N)C(C)C)nn3)CC2)n1 | -25.2%
Cc1ccc(NC(=O)c2ccc3nc[nH]c3c2)c(O)c1 | 0.5%
CC1=NN(c2ccccc2C)C(=O)C1 | 0.7%
COc1ccc(CNC(=O)c2cc3sccc3n2C)cc1 | -10.9%
O=C(O)CC(CCc1ccccc1)OC1OC(CO)C(O)C(O)C1O (configuration not stated) | -4.2%
CCOC(=O)Nc1ccc(S(=O)(=O)NCc2ccccc2)cc1 | -6.5%
NC(=O)c1cc(C(=O)Cc2ccc(Cl)cc2)c[nH]1 | -5.3%
Cc1ccccc1CN1CCC(CNC(=O)Nc2ccc(F)cc2F)CC1 | -4.8%
Cc1ccc(C(=O)NC2c3ccccc3-c3ccccc32)cc1 | 2.1%
Cc1csc(NC(=O)CSc2nnc3c4ccccc4nc(C(C)(C)C)n23)n1 | 4.6%
COc1cccc(-c2nn(C)c3sc(C(=O)N4CCN(c5cccc(C)c5)C(C)C4)cc23)c1 (configuration not stated) | -14.5%
CC(C)c1ccc(N(CC(=O)NCCSCc2ccco2)S(C)(=O)=O)cc1 | 6.4%
CC(C)=C1C2CCC1C(C(=O)NCCc1ccccc1)C2C(=O)O (configuration not stated) | -17.6%
COc1cccc(C=NNC(=O)c2ccncc2)c1O | -7.4%
CSc1ncc(Cl)c(C(=O)Nc2ccccc2[N+](=O)[O-])n1 | -6.3%
O=C(NCC1CCCO1)c1ccccc1NS(=O)(=O)c1cc([N+](=O)[O-])ccc1Cl (configuration not stated) | -8.9%

Grouped by structure: those above with a nitro group on carbon
SMILES | VDR inh
O=C(Cc1ccccc1)Nc1cc([N+](=O)[O-])ccc1N1CCOCC1 | -14.1%
CSc1ncc(Cl)c(C(=O)Nc2ccccc2[N+](=O)[O-])n1 | -6.3%
O=C(NCC1CCCO1)c1ccccc1NS(=O)(=O)c1cc([N+](=O)[O-])ccc1Cl (configuration not stated) | -8.9%

(next part)
SMILES | VDR inh
C=Cc1ccc(Cn2c(C(=O)O)c(CNCc3cc(OC)ccc3OC)c3ccc(C)cc32)cc1 | 5.7%
COc1cc(OC)c(C2C(C#N)=C(N)Oc3cc(C)n(CCCN4CCOCC4)c(=O)c32)cc1OC (configuration not stated) | -5.7%
COc1cccc(N2CCN(C(=O)c3c(C)oc4ncnc(N5CCOCC5)c34)CC2)c1 | 4.8%
COc1ccc(C(=O)Nc2cccc3nc(C)ccc23)c(OC)c1 | -14.4%
O=C(CN1C(=O)CSC1=O)Nc1ccccc1N1CCOCC1 | -7.6%
Clc1ccc(COc2ccccc2-c2ccnc3ncnn23)cc1 | -2.7%
COc1cccc(CN(C)C(=O)C2CSC3(C)CCC(=O)N23)c1OC (configuration not stated) | -19.9%
O=C(c1cccs1)N1N=C(c2ccccc2)CC1c1ccc(O)cc1 (configuration not stated) | -8.1%
CCc1cc2c(COC(=O)c3cccc(NS(C)(=O)=O)c3)cc(=O)oc2cc1O | 7.0%
CCC(=O)c1ccc2ncccc2c1 | -0.6%
Nc1nccnc1C(=O)OCC(=O)NCCc1ccc(S(N)(=O)=O)cc1 | 10.1%
O=C(O)c1ccccc1S(=O)CCO (configuration not stated) | 20.1%
Cc1cc(SCC(=O)N(C)c2c(N)n(Cc3ccccc3)c(=O)[nH]c2=O)nc2ccccc12 | -16.2%
COc1cccc(-n2c(CNc3ccc(F)cc3)nnc2SCC(N)=O)c1 | 8.1%
Cc1nc2ccccc2c(=O)n1NC(=O)c1ccc(Cl)c([N+](=O)[O-])c1 | -1.4%
CCc1ccc2nc(SCC(=O)N(CC)CC)c(C#N)cc2c1 | 7.3%
COc1ccc(S(=O)(=O)n2nc(OC(=O)c3ccncc3)cc2N)cc1 | ?
CCOc1ccc(CCNC(=O)c2ccc(-n3c(C)cc4c3CCC(C)C4)cc2)cc1OCC (configuration not stated) | 16.7%
Cc1cnc(C(=O)OCC(=O)Nc2ccc(C)c(S(=O)(=O)N3CCCCCC3)c2)cn1 | 2.0%
Cc1ccc(N=CC=C2OC(C)(C)C(C)(C)O2)cc1 | 5.7%
Cn1cccc1C(=O)N1CCC2(CC1)CCN(c1ccc(-c3ccccc3)cc1)CC2 | -3.5%
Cc1ccc(C(=O)OCC(=O)Nc2cc(S(=O)(=O)N3CCOCC3)ccc2C)cc1 | 8.8%
Cc1ccc(C(=O)NCCCn2ccnc2)cc1[N+](=O)[O-] | -11.1%
CCC(C)c1ccc(S(=O)(=O)N2CCN(C(=O)COc3ccc4c(C)cc(=O)oc4c3)CC2)cc1 (configuration not stated) | 9.3%
NC(=O)C12CCCC(Br)(CCC1)C2 | -0.7%

Continued:
SMILES | VDR inh
CNC(=O)Nc1cc(C(C)(C)C)no1 | ?
COc1cccc(CNC(=O)Cc2c(C)c3c(cc(C)c4c(C)c(C)oc43)oc2=O)c1 | 9.4%
NS(=O)(=O)c1ccc(CCNc2nc3c(-c4cccc(F)c4)nnn3c3ccccc23)cc1 | -5.7%
Cc1[nH]n(-c2ccc([N+](=O)[O-])cc2)c(=O)c1C=NCCc1c[nH]c2ccccc12 | -15.7%
O=C(CN1CCCCC1)c1c[nH]c2ccccc12 | -28.9%
CCn1c(C(=O)Nc2ccccc2C(=O)OC)cc2sc(Cl)cc21 | -3.3%
CCONC(=O)Nc1ccccc1[N+](=O)[O-] | -12.5%
COc1ccc(NC(=O)Nc2cccc(-c3cn4cccnc4n3)c2)cc1 | -3.9%
O=C(CC1C(=O)NCCN1CC1CCCCC1)NC1(c2ccccc2)CC1 (configuration not stated) | -1.8%
CCC(C)NC(=O)Cn1cnc2sc(C)cc2c1=O (configuration not stated) | -8.8%
COc1ccc(C(=O)NC2CCCc3ccccc32)cc1Br (configuration not stated) | 3.2%
COc1cc(-c2c(-c3ccsc3)sc3ccccc23)cc(OC)c1OC | 5.6%
CC(OC(=O)c1nc(-c2ccccc2)n(-c2ccccc2)n1)C(=O)Nc1cc(Cl)cc(Cl)c1 (configuration not stated) | -26.0%
O=C1NC(c2ccc(Cl)cc2Cl)Oc2ccccc21 (configuration not stated) | -4.1%
c1csc(-c2csc(-c3cccs3)n2)c1 | -10.8%
CCN(C(=O)c1ccc(Br)cc1)c1ccccc1 | -2.9%
CC(C)OC(=O)Cn1nnc(-c2ccccc2)n1 | 6.6%
CC/C(O)=C1\C(=O)CC(c2ccccc2)CC1=NC(C)C (configuration not stated) | -12.8%
CCc1ccc(NC(=O)c2cc(S(=O)(=O)NC3CCCCCC3)ccc2F)cc1 | -1.5%
CC1CN(C(=O)c2cccc(S(=O)(=O)Nc3cc(Cl)ccc3Cl)c2)CC(C)O1 (configuration not stated) | -27.1%
COc1ccc(C(=O)/C=C/c2ccc(OC)c(O)c2)c(F)c1 | 89.1µM*
CCOC(=O)CNC(=O)N1CCc2ccc(NC(=O)c3ccccc3OC)cc2C1 | 13.6%
O=C1c2cccc3c(O)ccc(c23)C(=O)N1c1ccc(Cl)cc1 | 37.9%[activator]
CSCCC(NC(=O)c1ccccc1Cl)C(=O)N(C)Cc1cccs1 (configuration not stated) | 0.4%
CCCC(=O)n1nc(NCc2ccc(OC)cc2)nc1NCc1ccc(OC)cc1 | -10.9%

Further structures follow:
SMILES | VDR inh
CCOC(=O)c1ccc(NC(=O)COCc2cc(-c3ccc4c(c3)OCO4)on2)cc1 | -0.5%
Cc1sc2ncn(CC(=O)N3CCN(c4ccc(F)cc4)CC3)c(=O)c2c1S(=O)(=O)N1CCN(c2ncccn2)CC1 | -10.1%
Cc1nn(Cc2ccccc2)c(Cl)c1C(=O)NCc1ccco1 | 1.7%
COc1ccc(NC(=O)Nc2ccc3c(c2)C(=O)N([C@@H](C)CO)C[C@@H](C)[C@@H](CN(C)CC2CCCCC2)O3)cc1 | -19.3%
CCOC(=O)c1c(C=O)c(C)n(Cc2ccccc2Cl)c1C | 12.0%
O=C(COc1ccc(Br)cc1)NCc1ccccn1 | 5.8%
O=C(NN=Cc1ccccc1OC(F)F)c1ccc(NS(=O)(=O)c2cccs2)cc1 | -13.1%
CCc1nc(N[C@@H](CC(C)C)C(=O)O)c2oc3ccccc3c2n1 | 17.1%
CC(C)(C)OC(=O)NC(CCNC=C1C(=O)OC(C)(C)OC1=O)C(=O)O (configuration not stated) | -2.6%
CC(C)(C)OC(=O)N(Cc1ccccc1)Cc1cccc(OCc2cccc(NC(=O)C3CC3)c2)c1 | -18.4%
CS(=O)(=O)N1CCN(C(=O)c2ccc(-c3ccccc3)cc2)CC1 | 3.1%
Cc1ccc(NC(=S)NCC2CCCO2)cc1 (configuration not stated) | 25.9%
O=C(c1ccc(NC(=S)Nc2ccc(Cl)c(Cl)c2)cc1)N1CCCC1 | -14.8%
COc1ccc(OC)c(CNC(=O)C2CCN(S(=O)(=O)N3CCCCC3)CC2)c1 | 24.0%&16.5%
Cc1ccc(C)c(N2CCN(C(=O)CCc3nc(-c4ccccc4)no3)CC2)c1 | -6.0%
CCC(c1nnnn1CCc1ccccc1)N1CCN(C(=O)c2ccco2)CC1 (configuration not stated) | 4.9%
COc1ccc(NC(=S)N2CCCN(Cc3cccc(Cl)c3)C2)cc1 | -25.0%
CC(=O)c1cccc(NC(=O)CN2CCN(S(=O)(=O)/C=C/c3ccccc3)CC2)c1 | -6.1%
CNC(=S)Nc1ccc(OCc2ccccc2)cc1 | -23.7%
O=C(CNC(=O)c1ccccc1)OCc1cc(=O)n2ccsc2n1 | -6.6%
Cc1cc(C)c(NC(=S)N(CCc2ccncc2)C(C)C)c(C)c1 | -23.7%

4 compounds already listed, sorted by molecular weight, falling:
SMILES | VDR inh
CCOC(=O)c1ccc(NC(=O)COCc2cc(-c3ccc4c(c3)OCO4)on2)cc1 | -0.5%
CS(=O)(=O)N1CCN(C(=O)c2ccc(-c3ccccc3)cc2)CC1 | 3.1%
O=C(CNC(=O)c1ccccc1)OCc1cc(=O)n2ccsc2n1 | -6.6%
Cc1ccc(NC(=S)NCC2CCCO2)cc1 (configuration not stated) | 25.9%

In a second layout: 2 of the compounds above.
structure	VDR inh
O=C(NN=Cc1ccccc1OC(F)F)c1ccc(NS(=O)(=O)c2cccs2)cc1	-13.1%
CCc1nc(N[C@@H](CC(C)C)C(=O)O)c2oc3ccccc3c2n1	17.1%
